PABP polyA inh: PABP-poly(A) binding inhibition; P11940; PABP-poly(A) RNA binding, fluorescence polarization; inhibition, % at 35 µM; 290,000 compounds, 1% hits; AID 2014;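 active = 50% or more with normal probe brightness, or confirmed in later tests; inconclusive = above 50% with abnormal brightness, or retests that disagree; inactive = below 50% or failed in later tests; about a fifth of its hits are not listed in these tables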;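 also: calls also rest on retests at 20 µM and on dose response follow-up; controls were probe without protein and protein plus probe with vehicle; some compounds called inactive have numbers as strong as hits; many hits fall short of the cut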
CSC inhib: blocks cancer stem cells; cancer stem cell-like cells viability, luminescence; 300,000 compounds, 1.1% hits; AID 2717; inhibition, % at 7.5 µM;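 active = mean at 75% or more and at least half the replicates too; inconclusive = mean and replicates disagree; tested in HMLE shEcad cells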;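 also: 0% = median of negative and 100% = median of positive control wells; the first replicate is given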
Yeast UUG start: alters start codon recognition fidelity in yeast. S. cerevisiae UUG-firefly luciferase reporter, luminescence/redox ratio. activity score, % at 18.7 µM. 350,000 compounds, 0.13% hits. AID 602363;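 active = replicate mean at a twofold rise or more, about +100% in these data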;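 also: firefly luciferase made from a UUG start codon reports start codon fidelity; reporter light over untreated wells divided by growth signal over untreated wells; some hits fall short of that in this replicate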
MT1-MMP act inh: blocks activation of human MT1-MMP; HT1080 RFP-PRO-GFP cells, GFP/RFP ratio fluorescence, overnight; percent of plate control window, DMSO zero; GFP/RFP ratio change, % at 20 µM; 360,000 compounds, 0.061% hits; AID 651647;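 active = GFP/RFP ratio change of at least 30% with cell ATP level not reduced by more than half and red fluorescence within 50% of control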; also: strong numbers were not always called active
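Assay system: HT1080 cells carrying an RFP-PRO-GFP reporter | Dosing: Single dose of 20 µM compound, 1% DMSO final | Incubation: Cells overnight before dosing, compound overnight, 37 °C, 5% CO2 | Evaluation: GFP/RFP fluorescence ratio | Control set: DMSO and RFP-L50D-GFP cell wells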
eIF4H FP inh: inhibitors of RNA binding by human eIF4H. Q15056. eIF4H fluorescence polarization binding assay. inhibition, % at 35 µM. 290,000 compounds, 0.94% hits. AID 2012;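 active = 50% or more with normal probe brightness, or confirmed in later tests; inconclusive = above 50% with abnormal brightness, or retests that disagree; inactive = below 50% or failed in later tests; about a fifth of its hits are not listed in these tables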;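 also: calls also rest on retests at 20 µM and on dose response follow-up; 0% = protein and probe with vehicle and 100% = probe without protein; strong numbers were not always called active; many hits fall short of the cut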
Rce1 inhib: yeast Ras-converting enzyme inhibition; yeast membranes, quenched prenylated peptide cleavage fluorescence; AID 2563; 290,000 compounds, 0.27% hits; calls only;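 active = fall in fluorescence gain of 50% or more versus controls, with final raw signal at or below 3038400; inconclusive = same 50% fall but final raw signal above 3038400; inactive = fall in fluorescence gain under 50%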;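 also: plate controls were neutral control wells for no effect and wells lacking membranes for full effect; tested at 10 µM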
Target sequence (Q03530 whole entry, looked up): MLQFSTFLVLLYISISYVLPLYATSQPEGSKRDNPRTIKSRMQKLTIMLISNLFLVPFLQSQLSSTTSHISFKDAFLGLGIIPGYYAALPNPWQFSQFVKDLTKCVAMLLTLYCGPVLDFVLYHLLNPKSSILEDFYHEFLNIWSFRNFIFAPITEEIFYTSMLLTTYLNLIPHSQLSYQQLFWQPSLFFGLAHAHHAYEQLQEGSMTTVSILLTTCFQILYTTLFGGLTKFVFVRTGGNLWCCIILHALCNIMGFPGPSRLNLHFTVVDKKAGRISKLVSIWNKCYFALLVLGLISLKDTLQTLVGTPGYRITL
Env fusion inh: HIV envelope-mediated fusion inhibition | HeLa-JRFL Env/CEM21 cell fusion, luciferase | inhibition, % at 12.3 µM | 360,000 compounds, 1.1% hits | AID 651610;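 active = mean replicate inhibition score of at least 50 and every replicate individually at or above 50; inconclusive = only one of the two criteria met; inactive = mean below 50 and not all replicates reaching 50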;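 also: 0% = plate neutral controls and 100% = maraviroc near 300 nM; one replicate is shown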
MT1-MMP act inh RFP: also measured in MT1-MMP act inh; calls as there; RFP signal change, %; measured here: RFP expression control read;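 0 = vehicle wells; hits needed this value within 50% of zero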
An asterisk follows results filed as active; i = inactive; ? = inconclusive; · = not tested or not shown.

molecule	PABP polyA inh	CSC inhib	Yeast UUG start	MT1-MMP act inh	MT1-MMP act inh RFP	eIF4H FP inh	Rce1 inhib	Env fusion inh
CC1CCN(c2c(NCC3CCC(C(=O)NCc4ccccc4Cl)CC3)c(=O)c2=O)CC1 (stereo unspecified)	-1	-3	1	-2	4	2	i	12
CCOc1ccccc1-n1c(C)nc2cc(C(=O)O)ccc21	8	-7	·	0	1	-2	i	-8
COc1ccc(CN(C)CC(=O)Nc2ccc(SC(F)F)cc2)cc1OC	-5	7	-8	-2	-7	-7	i	1
Cc1ccc(C(=O)NCC(=O)OCC(=O)Nc2cc(S(=O)(=O)N3CCOCC3)ccc2C)cc1	·	-13	12	1	3	·	i	-20
O=c1ccc2ccc(Oc3ccc([N+](=O)[O-])cc3Cl)cc2o1	-14	3	·	0	-1	-2	i	1
O=C(COC(=O)Cn1cnc2ccccc21)Nc1cccc2c1C(=O)c1ccccc1C2=O	3	42	·	-7	7	8	i	·
NC(=S)N/N=C1\CCOc2ccc(F)cc21	0	-11	·	0	-1	-4	i	-150
N#Cc1c(-c2ccc3c(c2)OCO3)ccn2nc(-c3cccc(C(F)(F)F)c3)nc12	-5	6	-18	8	-1	-12	i	-62
CN(C)/C=C(\C=O)c1ccc(Cl)cc1Cl	-7	7	-19	-1	-3	-4	i	-4
Cc1nn(-c2ccccc2)nc1C(N)=O	6	-5	-10	0	2	-3	i	-5
CCc1nnc(NC(=O)CSc2ncnc3c2oc2ccccc23)s1	2	-8	-1	3	-2	-4	i	8
CCOC(=O)CNC(=O)c1cc(-c2ccccn2)nc2c(C)c(Cl)ccc12	-4	-3	·	-8	-5	18	i	-12
Cc1ccc(S(=O)(=O)N(C)C)cc1NC(=O)C(C)OC(=O)c1ccc2ccccc2n1 (stereo unspecified)	·	1	10	0	4	·	·	·
COc1ccccc1/C=C/C=N/NC(=O)c1ccccn1	-6	-4	·	4	-1	9	i	-27
Cn1cnc(Sc2ncnc3nc[nH]c23)c1[N+](=O)[O-]	5	84*	-10	20	18	-14	i	7
CCOc1ncccc1C(=O)OCC(=O)c1cc(C)n(Cc2ccco2)c1C	20	-11	-47	-6	-3	8	i	-71
CCn1c(SCc2cccc(C)c2)nnc1-c1ccccc1	-8	-10	0	5	0	-10	i	·
Cc1ccc(S(=O)(=O)NCCCNC(=O)N2CCOCC2)cc1	4	-13	-12	-1	-6	-8	i	-39
CCOc1ncccc1C(=O)Nc1ccc(S(=O)(=O)Nc2nccs2)cc1	-4	14	-12	-1	-3	33	i	5
Cc1ccnc(NC(=O)C2CCC(CNc3c(N4CCCC4)c(=O)c3=O)CC2)c1 (stereo unspecified)	-8	-7	-2	-4	3	-3	i	34
CN1CCN(S(=O)(=O)c2cccc(C(=O)Nc3cccc(S(N)(=O)=O)c3)c2)CC1	3	-4	-14	0	0	9	i	-16
COc1cc(S(=O)(=O)NC(C)C)ccc1Cl	5	-5	-14	·	·	0	i	-22
O=C(COCC(=O)NCc1ccccc1)NCc1ccccc1	12	-4	·	1	3	-7	i	0
COc1ccc(CNC(=O)c2ccc(NC(=O)CC3SC(N4CCCCC4)=NC3=O)cc2)cc1 (stereo unspecified)	6	9	·	5	5	1	i	·
Cc1cc(C(=O)NNC(=O)c2ccc(C)s2)c(C)o1	·	-13	-21	0	3	·	·	-3
O=C(Cc1csc(-c2ccccc2)n1)NCc1cccs1	9	-6	9	3	6	-1	i	-33
CSc1ccc(Cl)c(C(=O)Nc2ccc(Cl)cn2)c1	11	14	-1	-11	-15	6	i	-38
NNS(=O)(=O)c1ccc2c(c1)Cc1cc(S(=O)(=O)NN)ccc1-2	9	-6	-12	-1	3	-6	i	-5
O=C(c1ccco1)N1CCN(C(=O)c2ccc(-c3ccccc3Cl)o2)CC1	·	1	-19	5	-1	·	·	·
CCN(CC)C(=O)COc1ccc(S(=O)(=O)N2CCCC2)cc1	-3	-4	-16	-3	-1	2	i	-6
CCCC(=O)Nc1c2c(nn1-c1ccccc1)CSC2	-10	-10	-10	4	3	-10	i	-1
CCN(CC)C(=O)C1CCCN(C(=O)Nc2ccc(NC(=O)N3CCCC(C(=O)N(CC)CC)C3)cc2)C1 (stereo unspecified)	2	-7	-6	0	5	3	i	-76
CCN(CC)S(=O)(=O)c1cccc(C(=O)N/N=C/c2cccc(O)c2O)c1	?	98*	·	-5	-9	?	i	35
CCCCOC(=O)C[N+](C)(C)CCOC1CC2CCC1(C)C2(C)C (stereo unspecified)	3	4	14	-7	-9	-2	i	103*
Cc1cccc(OC(C)C(=O)Nc2cc(Cl)ccc2-n2cncn2)c1 (stereo unspecified)	·	17	-5	-3	1	·	·	·
CCOc1ccc2nc(NC(=O)CSc3nc4cccnc4n3C)sc2c1	-2	-2	-10	-4	-11	-7	i	·
COc1cc(NC(=O)CSc2nnc(-c3ccncc3)o2)cc(OC)c1OC	2	-1	-17	-3	2	-12	i	-7
CCCCN(c1ccccc1)c1ncnc2nc[nH]c12	9	6	-12	-10	-7	-3	i	·
O=C(O)Cn1cc(/C=N/NC(=O)c2cc3cc(Br)ccc3o2)c2ccccc21	17	-7	·	0	2	5	i	5
O=C(CN1C(=O)NC2(CCOc3ccccc32)C1=O)c1ccc(Br)cc1 (stereo unspecified)	-19	0	-3	1	-1	-7	·	-1
COc1cc(SC)ccc1C(=O)Nc1nc(C)cc(C)n1	4	-10	-13	3	-2	-10	i	-1
O=C(CNC(=O)c1ccc(Br)cc1)c1ccc(Br)cc1	-3	-14	-10	0	1	-5	i	-77
CC(=O)Nc1ccc(S(=O)(=O)N2CCc3ccccc3C2CC(=O)O)cc1 (stereo unspecified)	5	-13	-6	3	8	-11	i	10
CCOc1cc2c(cc1OCC)C(c1ccc(C(=O)O)cc1)NCC2 (stereo unspecified)	0	-21	-12	-4	-5	-14	i	9
Cc1csc(CCc2nc(C)cs2)n1	6	-15	0	-2	4	7	i	·
CC1(C)CC(=O)c2cnc(NC(=O)C3CCCC3)nc2C1	0	-8	-15	-2	1	4	i	-8
CNc1cncc(-c2ccc(OCCCN(C)C)nc2)n1	·	·	-12	-3	2	·	·	-4
CC(C(=O)Nc1ccccc1)N(c1cccc(Cl)c1)S(C)(=O)=O (stereo unspecified)	-5	-4	-9	4	1	8	i	11
O=C(CSc1ncccn1)Nc1ccc2c(c1)OCO2	·	-2	-13	-2	4	·	·	-9
O=C1CN(C(=O)COC(=O)Cc2ccccc2F)c2ccccc2N1	·	-9	-8	3	1	·	·	·
COc1ccc(C2=NS(=O)(=O)N(C)C(C(=O)NCc3ccccn3)=C2)cc1OC	-5	-1	-38	-1	1	-5	i	5
CC1C(c2ccccc2)N(C)C(c2ccccc2)CC1(O)c1ccccc1 (stereo unspecified)	-12	-2	-2	-5	-7	-2	i	-117
O=C(Nc1ccc2c(c1)OCCO2)c1ccc(Br)o1	11	9	-19	-1	4	6	i	-215
O=C1NCC(O)=C1C=Nc1ccccc1O	2	17	0	1	1	0	·	38
O=C(Nc1ccc(NC(=S)NC(=O)c2cccs2)cc1)c1ccccc1	8	6	-8	1	0	1	i	·
Cn1c(SCC(=O)Nc2cccc(F)c2)nnc1-c1cccnc1	-10	16	-12	-1	-3	0	i	-54
Cc1cccc(OCCNc2cc(N3CCOCC3)ccc2[N+](=O)[O-])c1	-8	5	16	3	-5	-1	i	·
Cc1ccc(-c2nn3c(=O)c(C)nnc3s2)cc1	8	-4	-14	3	0	-16	i	-37
COCCNC(=O)CCn1c(=O)oc2ccccc21	6	-1	-19	3	9	-7	i	0
Cc1ccc(S(=O)(=O)NCC(=O)N(CC(=O)NCC2CCCO2)c2ccc(Cl)cc2)cc1 (stereo unspecified)	-2	·	2	0	2	-14	i	5

More compounds
molecule	PABP polyA inh	CSC inhib	Yeast UUG start	MT1-MMP act inh	MT1-MMP act inh RFP	eIF4H FP inh	Rce1 inhib	Env fusion inh
CCCOc1ccc(CCC(=O)N/N=C/c2ccncc2)cc1	2	6	·	2	-1	-5	i	4
CC(C)N(C(C)C)S(=O)(=O)c1ccc(Cl)nc1	-3	3	·	0	0	-4	i	15
Cc1cc(C(=O)CCC(=O)Nc2ccc(S(N)(=O)=O)cc2)c(C)s1	·	·	-22	6	0	·	·	-1
O=C(c1ccc(Br)o1)N1CCc2ccccc21	3	10	·	·	·	4	i	·
O=C(c1ccc2c(=O)n(-c3ccccc3)c(=O)[nH]c2c1)N1CCCCC1	0	-4	-20	-1	-11	-6	i	·
O=C(Nc1nc(=O)n(C(=O)C2CC2)s1)c1ccccc1	-2	-3	-15	-1	-2	0	i	·
CSc1ccc(C(=O)C2CCCN(C(=O)CCCn3cncn3)C2)cc1 (stereo unspecified)	-4	-5	·	0	-2	-10	i	-6
O=C(CN1CCN(Cc2ccccc2Cl)CC1)N/N=C/C=C\c1ccccc1[N+](=O)[O-]	7	·	·	-1	2	0	i	·
NCc1ccccc1COc1ccccc1	10	9	-13	1	4	9	i	-2

Assay outcomes (PubChem)

Rows were taken by chance (roughly 2.9% active in at least one column).
